# Screening data as filed in PubChem.
# T cruzi repl: blocks replication of Trypanosoma cruzi; T. cruzi beta-gal in NIH3T3, luminescence, 90 h; inhibition, % (concentration not given with the values); 300,000 compounds, 1.4% hits; AID 1885;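 active means mean inhibition across valid replicates above about 55%, limit read from the data; inconclusive means mean below that limit but half or more replicates reach it; inactive means mean below it, under half of replicates reach it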;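 further: signal also drops with host cell toxicity which is not excluded here; 0% = plate median of DMSO wells and 100% = zero luminescence signal; higher percent means less beta-gal luminescence so fewer parasites; stock transfer was 50 nL into about 50 µL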
# RanGTP-Imp inh: inhibitors of RanGTP-importin-beta interaction, primary screen, biochemical, FRET, CFP-Ran, YFP-importin-beta, homogeneous. 300,000 compounds, 1.1% hits. cell-free CFP-Ran/YFP-importin-beta FRET ratio. inhibition, % (no concentration beside the values);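 active means most replicates above 15%; inconclusive means exactly half above 15%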;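 further: 0% = DMSO wells and 100% = Ran loaded with GDP instead of GTP; wells of about 40 µL received 100 nL stock; the first replicate is given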
# Vif TR-FRET: HIV-1 Vif–A3G interaction blockers – biochemical, TR-FRET, GST-Vif 1-94, biotin-A3G peptide, dose response retest, primary screen (AID 1117319); one-dose inhibition, %; IC50 in µM for titrated hits; TR-FRET GST-Vif / biotin-A3G peptide binding; higher % means a stronger effect; test concentration not given here; strong numbers were not always called active; 260,000 compounds, 0.57% hits;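 active means above the screen mean plus three standard deviations and confirmed in dose response; inconclusive means results disagree or hit not tested in dose response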;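 further: Vif residues 1-94 fused to GST binding biotinylated APOBEC3G peptide 110-148; 0% = full assay without inhibitor and 100% = GST in place of GST-Vif; retest series ran down from 100 µM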
# AF4-AF9 inh: MLL-AF4/AF9 protein interaction inhibition; P42568; AlphaScreen, biotin-AF4 peptide binding to FLAG-AF9; inhibition, % at 10 µM; 350,000 compounds, 0.47% hits; AID 651704;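 active means every replicate reaching a set inhibition limit, whatever the replicate mean, cut at about 25% in these data; inconclusive means mean inhibition reaches that limit but some replicates miss it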;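 further: 0% = plate neutral control median and 100% = total signal loss; the record names both 10 and 1 µM as test concentration; the first replicate is given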
# Target sequence (P42568 whole entry, looked up): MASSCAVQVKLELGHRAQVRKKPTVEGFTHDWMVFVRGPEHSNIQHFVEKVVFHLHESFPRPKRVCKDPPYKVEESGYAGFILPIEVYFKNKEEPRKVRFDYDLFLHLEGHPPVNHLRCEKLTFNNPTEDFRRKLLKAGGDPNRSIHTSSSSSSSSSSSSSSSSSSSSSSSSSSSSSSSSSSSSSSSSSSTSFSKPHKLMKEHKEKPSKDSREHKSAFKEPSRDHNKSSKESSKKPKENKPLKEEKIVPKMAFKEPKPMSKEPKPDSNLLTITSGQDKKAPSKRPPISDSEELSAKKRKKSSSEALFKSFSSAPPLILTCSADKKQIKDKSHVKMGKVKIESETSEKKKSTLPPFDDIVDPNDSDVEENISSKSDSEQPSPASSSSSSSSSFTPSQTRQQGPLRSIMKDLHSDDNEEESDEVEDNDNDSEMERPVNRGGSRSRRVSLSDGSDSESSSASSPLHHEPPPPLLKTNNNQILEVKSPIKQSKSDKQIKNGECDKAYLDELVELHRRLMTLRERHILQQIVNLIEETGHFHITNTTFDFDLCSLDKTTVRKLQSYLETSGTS
# rRNA inh HTS: inhibitors of bacterial rRNA selective over humanized ribosomes. GFP signal change (wild-type ribosome), % (test concentration not listed). E. coli WT GFP vs humanized-ribosome RFP mutants, fluorescence, 24 h; active compounds read low; DMSO median 0, no signal -100. 350,000 compounds, 1.6% hits;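 active means significant combined selectivity score with lowered wild-type GFP, culture density cut under 30%, mutant RFP and density less affected; inactive means any of these conditions unmet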; further: one replicate is shown; some compounds called inactive have numbers as strong as hits
# Calb FLC: affects C. albicans growth with fluconazole; C. albicans CaCi-2 (fluconazole-resistant clinical isolate) + fluconazole, Alamar Blue growth, 48 h; growth inhibition, % (concentration not given with the values); 300,000 compounds, 0.57% hits; AID 1979;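 active means most replicates above 75%; inconclusive means exactly half above 75%; inactive means most below 75%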;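 further: all wells also contain fluconazole at 8 µg/ml as a sub-toxic cotreatment; 0% = median of DMSO wells and 100% = median of geldanamycin control wells; wells of about 8 µL received 7.5 nL stock; the first replicate is given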
# Beta cell apopt: beta cell apoptosis inhibition. INS-1E cytokine-induced death, ATP luminescence, 48 h; percent of positive-control rescue, neutral wells zero. protection from apoptosis, % (test concentration not listed). 300,000 compounds, 0.8% hits;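 active means all replicates at 75% or more, or half of them and the mean; inconclusive means half reach 75% but not the mean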;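 further: 0% = cytokine-treated negative control wells and 100% = positive control rescue; higher means more ATP so stronger rescue from cytokine killing; wells of about 40 µL received 100 nL stock; the first replicate is given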
# A1 inh: inhibitors of the anti-apoptotic protein A1, read as caspase activation; MEF A1-2A-BIM cells, Caspase-Glo 3/7 luminescence, 3 h; percent of clofoctol response, vehicle zero; caspase activation, % (concentration not given with the values); 330,000 compounds, 0.066% hits;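 active means over half of replicate activation scores above 10%, or exactly half above 10 with the replicate mean above 10; inconclusive means replicate mean below 10 yet half the replicates above 10; inactive means over half of replicates below 10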;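 further: wells of about 30 µL received 50 nL stock; many hits fall short of the cut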
# rRNA inh HTS OD600: also measured in rRNA inh HTS; calls as there; OD600 change, %; measured here: OD600 growth;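 optical density of the mix in the first replicate; 0 = DMSO median and -100 = no signal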
# rRNA inh HTS RFP: also measured in rRNA inh HTS; calls as there; RFP signal change, %; measured here: RFP humanized mutant strains;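 first replicate; 0 = DMSO median and -100 = no signal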
# * marks the source's active call; other numbers are inactive results; ? = inconclusive; . = not tested or not shown; & = joins results of further samples.
SMILES,T cruzi repl,RanGTP-Imp inh,Vif TR-FRET,AF4-AF9 inh,rRNA inh HTS,rRNA inh HTS OD600,rRNA inh HTS RFP,Calb FLC,Beta cell apopt,A1 inh
CC1(C)Cc2[nH]c(=S)c(C#N)cc2CO1,-19,0.0,0%,.,.,.,.,-3,-4,0.4
COc1cc(OC)c(/C=N/NC(=O)c2ccncc2)cc1Br,-12,0.7,8%,-8.6,-1,11,2.0,-13,.,1.3
CCOc1ccc(CC(=O)Nc2c(C(=O)Nc3ccccc3)oc3ccccc23)cc1OCC,24,1.4,0%,.,.,.,.,0,19,-0.1
Cc1ccc2c(c1C)NC(C)CC2C (centres undefined),?,?,?,.,.,.,.,5,-5,-1.7
Cc1oc2cc(O)ccc2c(=O)c1-c1cnn(-c2ccccc2)c1,6,-4.5,1%,.,.,.,.,1,-2,0.0
COc1cc2c(cc1Cl)C(=O)C(F)(c1ccccc1)C(=O)N2 (centres undefined),-6,-0.8,10%,-7.0,-29*,5.9*,-2.1*,12,-5,1.3
COCCNC(=O)Cn1c(=O)n(CCCC(=O)NCc2ccc3c(c2)OCO3)c(=O)c2sccc21,-6,-2.4,.,-3.4,12,5,-0.1,-9,1,0.6
COc1ccc(C)cc1NC(=O)c1[nH]c(C)c(C(C)=O)c1C,13,4.0,70%,.,.,.,.,-47,-11,2.1
Cc1cc(C(=O)OCc2nc3ccccc3s2)c(C)o1,-4,-2.2,1%,.,.,.,.,7,-5,-1.2
Cc1cccc(NC(=S)NC2CC3CCC(C2)N3Cc2ccco2)c1C (centres undefined),-2,-4.9,4%,5.9,11,7,-7.1,-4,-23,1.0
CC(C)CNC(=O)c1ccc2c(c1)C(=O)N(Cc1ccco1)C2=O,-3,0.3,0%,-1.5,4,6,-1.5,6,2,0.9
Oc1ccc(Cl)cc1C1=NNC(c2cc(Br)cc3c2OCOC3)C1 (centres undefined),10,-2.1,-7%,4.6,-11,-1,1.5,70*,15,-0.2

# Part of the list above, limited to RanGTP-Imp inh:
SMILES	RanGTP-Imp inh
COc1cc(OC)c(/C=N/NC(=O)c2ccncc2)cc1Br	0.7
CCOc1ccc(CC(=O)Nc2c(C(=O)Nc3ccccc3)oc3ccccc23)cc1OCC	1.4

# Additional structures.
SMILES,T cruzi repl,RanGTP-Imp inh,Vif TR-FRET,AF4-AF9 inh,rRNA inh HTS,rRNA inh HTS OD600,rRNA inh HTS RFP,Calb FLC,Beta cell apopt,A1 inh
Cc1nn(Cc2ccccc2Cl)c2sc(C(=O)Nc3ccccc3N3CCOCC3)cc12,11,5.1,.,-0.8,0,-16,-2.7,25,3,0.1
COCCn1c(SCC(=O)NC(C)c2ccc(F)cc2)nc2ccccc21 (centres undefined),5,-3.5,.,3.0,-3,-7,-1.9,-2,-6,0.0
CC(=O)Nc1ccc(S(=O)(=O)NCCC(=O)Nc2ccc(C)c(F)c2)cc1,1,0.2,4%,-0.1,2,5,-0.5,-9,5,0.5
N/C(=N\OC(=O)CCc1ccccc1)c1ccc(Cl)cc1,4,4.2,9%,.,.,.,.,-19,-4,-0.5
COc1cc(NC(=O)c2ccccc2F)c(OC)cc1NC(=O)CN1CCCCC1,14,1.6,.,1.6,-9,-7,2.6,2,3,0.1
CCCc1nc2ccccc2n1CCOC,-14,2.8,5%,.,.,.,.,5,-7,?
O=c1cc(-c2ccccc2)oc2ccccc12,.,.,.,-1.6,-4,-1,-11,.,2,-1.4
Cc1ccccc1CSCC(=O)Nc1c(C)n(C)n(-c2ccccc2)c1=O,-8,-0.5,.,-0.1,5,2,-0.6,-2,-6,0.0
C=CC1=C2C=C(C3CC3)N(CC3CC3)C=C2C(=O)C(C)(OC(=O)c2ccco2)C1=O (centres undefined),6,-1.7,.,-1.4,2,10,-0.3,1,0,0.6
Cc1cc2oc(=O)cc(CN3CCN(Cc4ccccc4)CC3)c2cc1Cl,?,-5.7,7%,.,.,.,.,-7,0,0.0
Clc1cccc(-c2nc(NCCCN3CCOCC3)c3ccccc3n2)c1,8,0.9,4%,2.0,-60,-82,-22,28,-2,-0.5
O=C(N1CCOCC1)N1CCN(c2ccccc2)CC1,-9,1.8,2%,.,.,.,.,3,0,0.2

# Exported as tab-separated lines: 3 of the compounds above
Molecule	T cruzi repl	RanGTP-Imp inh	Vif TR-FRET	AF4-AF9 inh	rRNA inh HTS	rRNA inh HTS OD600	rRNA inh HTS RFP	Calb FLC	Beta cell apopt	A1 inh
C=CC1=C2C=C(C3CC3)N(CC3CC3)C=C2C(=O)C(C)(OC(=O)c2ccco2)C1=O (centres undefined)	6	-1.7	.	-1.4	2	10	-0.3	1	0	0.6
Cc1ccccc1CSCC(=O)Nc1c(C)n(C)n(-c2ccccc2)c1=O	-8	-0.5	.	-0.1	5	2	-0.6	-2	-6	0.0
N/C(=N\OC(=O)CCc1ccccc1)c1ccc(Cl)cc1	4	4.2	9%	.	.	.	.	-19	-4	-0.5

# Additional entries:
SMILES,T cruzi repl,RanGTP-Imp inh,Vif TR-FRET,AF4-AF9 inh,rRNA inh HTS,rRNA inh HTS OD600,rRNA inh HTS RFP,Calb FLC,Beta cell apopt,A1 inh
CCC(=O)N1CCN(c2ccc(NC(=O)COc3ccccc3Cl)cc2)CC1,-10,-3.1,-1%,0.7,-4,-7,12,7,-4,0.0
CCOCCn1c(CN2CCC(Cc3ccccc3)CC2)nc2c1c(=O)n(C)c(=O)n2C,-4,0.8,.,-65,19,12,5.1,-10,5,-0.9
COc1ccc(S(=O)(=O)Nc2cccc(N(C)S(C)(=O)=O)c2)cc1Br,-10,0.1,8%,.,.,.,.,-5,-1,-1.3
Cc1ccccc1NC(=O)C1CCN(C(=O)NC2CCCCC2)CC1,-2,4.6,.,-2.2,5,2,-1.2,-2,-5,-0.4
C#CCOCCOCCOCCNc1nc(N2CCN(C(=O)[C@H]([C@@H](C)CC)n3cc([C@@H](N)Cc4ccc(O)cc4)nn3)CC2)nc(N2CCN(C(=O)[C@H](CCCCN)n3cc([C@@H](N)CC(C)C)nn3)CC2)n1,-9,8.2,-14%,.,.,.,.,-5,-3,0.2
CCC(=O)N1CCN(c2ccnc3cc(Cl)ccc23)CC1,5,2.1,24%,.,-8,-4,3.9,2,-4,0.2
Cn1cccc1CC(=O)NNC(=S)NC(=O)c1ccc(F)cc1,-3,4.8,.,-4.5,0,1,-4.0,-5,1,0.1
O=C(CSc1nnc(Cc2ccccc2)o1)NCCc1ccccc1,4,-3.6,17%,-19,10,11,13,5,-10,-0.1
CCOc1ccc(NC(=O)C2CCCN(S(=O)(=O)c3ccc4c(c3)CC(C)N4C(C)=O)C2)cc1 (centres undefined),-22,?,0%,-0.5,12,-1,-0.6,-3,3,-0.8
Cc1ccc2[nH]c3c(c2c1)CN(C(=O)CN1CCN(c2ccccn2)CC1)CC3,19,-10.0,20%,.,.,.,.,-6,.,-1.1
Cc1nc2cc(C(F)(F)F)ccc2n1CCNc1nc(-c2cc(Cl)c(N)c(Cl)c2)cs1,-7,-3.3,.,-3.2,4,0,5.7,7,-2,0.2
Cc1ccc(S(=O)(=O)NCCC(=O)Nc2ccc(S(=O)(=O)NC(C)C)cc2)cc1,-8,0.7,0%,-2.3,-9,-5,-1.6,-5,-3,-0.1
O=C(Nc1ccccc1)NC1CCCc2ccccc21 (centres undefined),16,-3.4,-5%,0.0,11,10,-2.2,-9,-2,-0.1
COc1ccc(COC(=O)c2sc3nc4n(c(=O)c3c2C)CCC4)cc1,-8,-0.3,.,-0.9,2,-2,0.7,-5,-3,-0.1
CCOc1ccccc1CNc1nc2ccccc2n1C,-5,0.4,.,0.1,2,2,-1.0,-14,.,1.3
Cc1nnc(SCc2nnc(-c3ccccc3Br)o2)n1-c1ccccc1,17,1.4,27%&2%,.,.,.,.,13,-25,-0.1
Cn1nc(C(F)(F)F)c(C(=O)Nc2ccc(F)cc2F)c1Sc1ccc(C(F)(F)F)cc1,28,-2.0,0%,3.4,17,16,-3.5,-3,.,.
CC1CCC(NC(=O)C2CCC(CNS(=O)(=O)c3cccc4nsnc34)CC2)CC1 (centres undefined),-6,?,-4%,-1.2,8,-1,1.4,-10,2,0.2
Cc1cccc(OCCNC(=O)c2ncn[nH]2)c1,-4,-0.6,-2%,3.4,11,8,3.9,-14,-1,0.4
Cc1c(O)ccc(C(=O)CN2CCN(c3ccccc3)CC2)c1O,-8,3.5,-4%,2.5,1,4,1.5,-4,2,0.1
CN(CC(=O)Nc1ccc(N2CCOCC2)cc1)Cc1c(O)ccc2ccccc12,-23,-2.2,25%,5.2,13,-9,9.1,-1,2,-0.6
COc1ccc(C(=O)N=c2sc3ccccc3n2C)cc1,12,2.3,-3%,-6.3,4,1,0.2,1,1,-6.5
COc1ccc(-c2noc(CCC(=O)N(C)c3cccc(C)c3)n2)cc1,-2,-0.4,-8%&-2%,.,.,.,.,-8,-8,0.5
CN1CCN(CCNC(=O)Nc2ccc([N+](=O)[O-])cc2)CC1,4,3.1,15%,-2.1,3,-6,-2.6,7,-2,0.8
CCC(NC(=O)C1CCC1)c1ccc(C)cc1 (centres undefined),6,3.2,-3%,.,.,.,.,0,-5,0.5
O=C(NNC1=C(C(=O)C(F)(F)F)CCC1)c1ccncc1,-9,1.5,5%,-8.2,5,12,0.7,59,.,1.0
Cc1ccc(NC(=S)NCC2CCN(C(C)c3ccccc3)C2)cc1C (centres undefined),?,-1.2,-5%,25*,6,-10,-0.1,3,-5,1.2
Cc1ccccc1SCCNC(=O)CCc1ccccc1,5,0.8,.,.,.,.,.,0,-2,-0.2
COc1ccc(-n2c(C)nnc2SCC(=O)N2CCOCC2)cc1,-5,?,.,-5.0,16,9,-1.6,4,-5,0.0

# Taken from above.
# O=C(NNC1=C(C(=O)C(F)(F)F)CCC1)c1ccncc1 in AF4-AF9 inh reads -8.2
# Cc1ccc(NC(=S)NCC2CCN(C(C)c3ccccc3)C2)cc1C (centres undefined) in AF4-AF9 inh reads 25*
# COc1ccc(-n2c(C)nnc2SCC(=O)N2CCOCC2)cc1 in Beta cell apopt reads -5

# Part of the list above in order of heavy-atom count, falling.
SMILES,T cruzi repl,RanGTP-Imp inh,Vif TR-FRET,AF4-AF9 inh,rRNA inh HTS,rRNA inh HTS OD600,rRNA inh HTS RFP,Calb FLC,Beta cell apopt,A1 inh
Cc1ccc(NC(=S)NCC2CCN(C(C)c3ccccc3)C2)cc1C (centres undefined),?,-1.2,-5%,25*,6,-10,-0.1,3,-5,1.2
COc1ccc(-n2c(C)nnc2SCC(=O)N2CCOCC2)cc1,-5,?,.,-5.0,16,9,-1.6,4,-5,0.0
CCC(NC(=O)C1CCC1)c1ccc(C)cc1 (centres undefined),6,3.2,-3%,.,.,.,.,0,-5,0.5

# These rows are one share of the data, so the mix of outcomes need not match the whole.
